Screening data: PubChem BioAssay, ICCB-Longwood Screening Facility, Harvard Medical School
GIV-Gai inh = blocks GIV peptide binding to rat Galpha-i3; 0.42% of 210,000 active; AID 1224905; percent of control (FP), % (test concentration not listed); Galpha-i3/FITC-GIV peptide fluorescence polarization, 90 min; stronger effect = lower value; scaled: aluminum fluoride 0%, vehicle 100%; P08753;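 active = replicate mean at 85% of control or lower, very high polarization wells dropped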;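 note: wells of about 15 µL received 100 nL stock; the first replicate is given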
Target sequence (P08753 whole entry, looked up): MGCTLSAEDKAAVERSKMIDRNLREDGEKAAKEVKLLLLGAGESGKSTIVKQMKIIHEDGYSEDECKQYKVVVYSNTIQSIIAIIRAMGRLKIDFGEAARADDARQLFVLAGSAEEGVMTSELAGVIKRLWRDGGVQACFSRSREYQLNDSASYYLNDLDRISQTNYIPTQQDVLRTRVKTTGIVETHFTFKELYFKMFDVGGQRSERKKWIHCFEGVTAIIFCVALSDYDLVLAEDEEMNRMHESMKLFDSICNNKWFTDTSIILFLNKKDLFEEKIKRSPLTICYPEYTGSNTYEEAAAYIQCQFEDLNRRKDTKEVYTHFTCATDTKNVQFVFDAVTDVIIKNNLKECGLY
Sa growth inh = blocks Staphylococcus aureus growth; relative growth, % (test concentration not listed); 0.53% of 170,000 active; AID 720641; S. aureus RN4220 growth, OD600, 20 h, 42 °C; stronger effect = lower value;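 active = growth at 42 °C up to 50% and 20 or more points under that at 30 °C, or under 10% at both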;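 note: 300 nL library stock went into each well; scaled to the means of positive and negative controls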
HCMV UL50-53 inh = cytomegalovirus nuclear egress complex inhibition; HTRF UL50-UL53 interaction, normalized percent inhibition; inhibition, % (concentration not given with the values); 0.15% of 190,000 active; AID 1918969;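 active = both replicates at 50% or more, plus weaker picks with an unusually low signal ratio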;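 note: stock transfer was 100 nL into about 20 µL; 0% = negative control wells and 100% = wells with untagged competitor protein; inactives centre near -12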
Sa growth inh second temp = further read-out of Sa growth inh, marked with its call; relative growth, %; measured here: growth at 30 °C;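 optical density after 20 h as mean of two plates; 100% = untreated growth and lower means inhibition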
Numbers without * were called inactive; / = no result given; & = joins results of further samples. Rows are unselected; any-hit rate near 0.83%.

Molecule,GIV-Gai inh,Sa growth inh,Sa growth inh second temp,HCMV UL50-53 inh
CCOC(=O)CSc1nnc(-c2ccc(Br)cc2)n1-c1ccccc1,104,/,/,-6
CCc1nnc(NC(=O)c2ccc(S(=O)(=O)N3CCCCC3C)cc2)s1 (stereo not given),99,88,97,-12
COc1ccc(OC)c(S(=O)(=O)c2ccc(C)cc2)c1,100,78,88,-16
CC(=O)Nc1ccc(S(=O)(=O)N2CCCCC2C)cc1 (stereo not given),/,85,79,-12
CC(C)n1cnc2nc(CSc3ccc(NC(=O)COc4ccccc4F)cc3)cc(=O)n21,102,/,/,-19
O=C(O)CSc1nc2ccccc2n2cnnc12,101,92,78,/
NS(=O)(=O)c1ccc(N2CCCC2=O)cc1,/,96,84,-5
CC(C)Cn1c(SCn2nnc3ccccc3c2=O)nc2ccccc2c1=O,/,89,85,-26
Cc1ccc(C(=O)c2cn(Cc3ccc(F)cc3)c3nc(C)ccc3c2=O)cc1,121,81,99,-13
CN(CCCNC(=O)C1CCCN(c2nc3cccnc3s2)C1)C1CCCCC1 (stereo not given),107,/,/,-18
S=c1[nH]c2ccccc2n1CCc1ccccc1,/,113,71,5
Cc1nc(CC(=O)NCc2ccc3c(c2)OCO3)cs1,102,/,/,-1
Cc1ccc(NC(=O)Nc2sc3nc4n(c(=O)c3c2C)CCC(C)CC4)c(Cl)c1 (stereo not given),107,95,85,-2
O=S(=O)(NC1CCCC1)c1cccs1,104,84,90,-26
CC(C)NC(=O)CSc1nc2cc(-c3ccccc3)[nH]c2c(=O)n1Cc1ccccc1,102,/,/,-11
O=C(CCc1nc2ccccc2o1)OCc1cc(=O)n2c3c(sc2n1)CCCC3,/,88,83,-30
COC(=O)CSC1=C(C#N)C(c2cc(Br)c(O)c(OC)c2)CC(=O)N1 (stereo not given),100,/,/,-16
CN(Cc1c(F)cccc1Cl)C(=O)Cc1ccc2c(c1)OCCO2,/,94,96,-4
COc1ccccc1N(C(=O)C1CSC(=O)C1)C(C(=O)NC1CCCCC1)c1ccncc1 (stereo not given),98,95,84,-13
Cc1ccc(N2C(=O)C(C(C)C)NC2=S)cc1 (stereo not given),/,90,101,7
COc1ccc(N2CCn3c(nc4ccccc43)C2)cc1NS(C)(=O)=O,88,/,/,-15
Cn1nc(C(=O)N2CCCCC2)c2c1-c1ccccc1SC2,99,90,80,-18
COC(=O)c1ccc(-c2ccc(/C=C3/C(=O)N(c4ccc(Cl)c(C(=O)O)c4)N=C3C)o2)cc1,102,/,/,5
COc1cc(NC(=O)NCCn2nnc3cc(S(=O)(=O)N(C)C)ccc32)cc(OC)c1,103,100,93,/

Random excerpt: 2 compounds from above.
Molecule,GIV-Gai inh,Sa growth inh,Sa growth inh second temp,HCMV UL50-53 inh
NS(=O)(=O)c1ccc(N2CCCC2=O)cc1,/,96,84,-5
O=S(=O)(NC1CCCC1)c1cccs1,104,84,90,-26

Next part.
Molecule,GIV-Gai inh,Sa growth inh,Sa growth inh second temp,HCMV UL50-53 inh
COc1ccc(C2Nc3ccccc3C(=O)N2Cc2ccco2)cc1CN1C(=O)c2ccccc2C1=O (stereo not given),103,/,/,-21
O=C(CCn1c(=O)c2cccn2c2cccnc21)N1CCN(c2ccccc2)CC1,104,88,104,/
COc1ccc(C(CC(=O)NCc2ccco2)Sc2n[nH]c(-c3ccc(Cl)cc3)n2)cc1 (stereo not given),110,113,82,-2
Cc1cccc(-n2c(SCc3csc(C)n3)nnc2-c2cccc(S(=O)(=O)N(C)C)c2)c1,/,108,89,-17
O=C(CCS(=O)(=O)c1ccc(F)cc1)Nc1ccccc1,101,96,85,-34
CCOc1cccc(C(=O)Nc2c(C(=O)c3ccc(OC)cc3)oc3ccccc23)c1,109,92,90,-6
COC(=O)c1sc(N)c(C(=O)OC)c1COC(=O)CNS(=O)(=O)c1cccc(C#N)c1,/,83,84,-7
COC(=O)c1ccc(NC(=S)NC2CC2)cc1,111,111,88,-10
Cc1cc2nc(CSc3nc4ccccc4[nH]3)cc(=O)n2o1,101,102,92,-6
CCc1cccc(NC(=O)Cn2ncc3c(=O)oc4ccccc4c32)c1,104,89,82,-23
COc1ccc(C2CC(c3ccccc3)=NN2C(=O)CN(C)C2CCS(=O)(=O)C2)cc1 (stereo not given),/,99,83,-35
CC(C)c1ccc(-c2cc3c4nn(CC(=O)N(C)c5ccc(F)cc5)c(=O)n4ccn3n2)cc1,104,/,/,-17
COc1cccc(C(=O)OCC(=O)NCc2ccccc2)c1,/,83,85,-5
CCCCn1cc2c(c1-c1ccc(Cl)cc1)c(=O)n(C)c(=O)n2C,95,111,89,9
COCCNc1nc2c(S(=O)(=O)c3ccccc3)nnn2c2ccc(Cl)cc12,113,80,84,5
CC(C)(C)S(=O)(=O)c1ccc(N2CCN(c3ncccn3)CC2)nn1,101,/,/,-31
COc1cc(C(=O)O)cc(OC)c1OCC(N)=O,/,89,87,-18
NC(=O)NCCc1nc2ccccc2[nH]1,102,99,89,-11
CCOc1cc(C#N)c(NC(=O)c2ccc(OC)c(S(=O)(=O)N3CCN(c4ccccc4)CC3)c2)cc1OCC,104,95,86,-17
O=C(Nc1ccccc1)c1ccccc1OCC(=O)N1CCCC1,/,75,87,-20
O=C(c1ccc2c(c1)OCO2)N1CCC(O)(C2CCN3Cc4ccccc4N=C23)CC1 (stereo not given),102,/,/,0
COC(=O)c1sccc1NC(=O)CSc1nccn2nc(-c3ccc(OC)cc3)cc12,99,/,/,0
CC(C)(C)c1ccc(C(=O)NCCn2c(N)c(C#N)c3nc4ccccc4nc32)cc1,/,87,103,-14
Cn1cc(O)nc1NC(=O)c1cccc(Oc2ccccc2)c1,/,30,2,-35
CCc1nc(-c2ccc(C(=O)NCC(=O)NC3CCC(C)CC3)cc2)no1 (stereo not given),113,/,/,-17
CCNS(=O)(=O)c1ccc(NC(=O)Cc2ccc(OC)cc2)cc1,104,109,91,-11
COc1ccc(CNC(=O)c2cc(-c3ccc(OC)c(OC)c3)nc3n[nH]c(-c4ccc(C)cc4)c23)cc1,103,107,72,/
S=C(NCC1CCCO1)N1CCc2ccccc21 (stereo not given),/,117,90,1
CC(C)(C)OC(=O)n1cc(C(=O)c2ccccc2O)cn1,/,96,97,-34
Cc1ccc(C)c(N2CCN(CCCNC(=O)c3oc4c(c3C)-c3[nH]ncc3CC4)CC2)c1,104,107,86,/
CCOC(=O)c1c(NC(=O)CC)sc(C)c1C,107,108,85,/
COc1ccc(-c2cc(OCC(=O)Nc3ccc(C)c(C)c3)c3ccccc3n2)cc1,105,/,/,-16
COCCCn1c(C)cc(C(=O)COc2cccc(C#N)c2)c1C,/,92,93,-29
Cc1ccc(CSc2n[nH]c(N)n2)cc1,102&103,94&119,91&75,-4&-8
COC(=O)C1=C(c2ccccc2)c2ccccc2S(=O)(=O)N1CC(=O)Nc1ccccc1Cl,102,94,92,0
COc1cccc(C2c3c(oc4ccccc4c3=O)C(=O)N2c2ccccn2)c1 (stereo not given),106,92,91,-18
Cc1ccc(-c2nc(CCNC(=O)C(=O)Nc3ccc(C)cc3C)cs2)cc1,93,101,79,/
COCCCNC(=O)c1oc2c(c1C)-c1nn(Cc3ccc(Cl)cc3)cc1CC2,100,99,63,-28
Cc1ccc2c(c1)c1cccc3c1n2CCN3CCC#N,108,122,92,-13
COc1cc(OC)c(C(=O)OC(C)C(=O)N2CCC(C)CC2)cc1OC (stereo not given),/,110,87,-40
CCN(CC)c1ccc(C=C2C(=O)N(C)C(=S)N(C)C2=O)cc1,120,102,77,/
CC(=O)N1CCc2cc(S(=O)(=O)CCC(=O)Nc3ccc(C)cc3Br)ccc21,107,105,82,-14
COc1ccccc1CNC(=O)CCCn1c(=O)c2cccn2c2ccccc21,105,108,67,2
COc1ccc(CCNC(=O)c2ccc3c(c2)nc2n3CCCCC2)cc1OC,105,106,91,/
COc1cc2c(cc1OC)C(=O)NCC2,98,86,91,-9
CCOC(=O)Cn1c(=O)c2c(nc3n2CC(C)CN3c2ccc(OCC)cc2)n(C)c1=O (stereo not given),103,/,/,6
O=C1C=CC(=O)N1c1ccc2c(c1)OCCO2,107,61,36,6
Cc1c(CNC2CCC(C)CC2)c(C(=O)O)c(C)n1Cc1ccc(Cl)cc1 (stereo not given),110,107,95,-23

4 compounds out of the list, ordered by formula weight, smallest number first.
Molecule,GIV-Gai inh,Sa growth inh,Sa growth inh second temp,HCMV UL50-53 inh
CCCCn1cc2c(c1-c1ccc(Cl)cc1)c(=O)n(C)c(=O)n2C,95,111,89,9
CN(CCCNC(=O)C1CCCN(c2nc3cccnc3s2)C1)C1CCCCC1 (stereo not given),107,/,/,-18
CCOC(=O)CSc1nnc(-c2ccc(Br)cc2)n1-c1ccccc1,104,/,/,-6
COc1cc(NC(=O)NCCn2nnc3cc(S(=O)(=O)N(C)C)ccc32)cc(OC)c1,103,100,93,/

Continued.
Molecule,GIV-Gai inh,Sa growth inh,Sa growth inh second temp,HCMV UL50-53 inh
COc1ccc(S(=O)(=O)NC(CC(=O)NC2CCCC2)c2ccco2)cc1 (stereo not given),107,96,93,-21
CCn1cnc2cc(NC(=O)C3CCCCC3)ccc21,96,104,89,-9
CC(C)Oc1snc(Cl)c1C(N)=O,/,101,96,-3
CCN(CC)C(=S)Nc1ccc2nsnc2c1,66*,93,27,/
COc1ccc(C2N(c3ccc(OC)cc3)C(=O)C23CCCC3)cc1 (stereo not given),/,92,86,-15
CCOC(=O)C1CCCN(C(=O)c2c[nH]n3c(=O)c(Cc4ccc(Cl)cc4)c(C)nc23)C1 (stereo not given),105,98,92,/
Cn1c(=O)c2c(-c3ccc(Br)cc3)c(Nc3ccccc3)oc2n(C)c1=O,106,/,/,-7
N#Cc1ccc(COc2cccc3cccnc23)cc1,/,71,84,-30
CCCc1cnc2c(c1SCc1ccc(C(F)(F)F)cc1)c(=O)n(C)c(=O)n2C,103,100,98,/
CCOC(=O)c1c(NC(=O)CC2SC(=NC)N(C)C2=O)sc2c1CCCC2 (stereo not given),110,/,/,9
CCCCNC(=O)C(Cc1ccccc1)NS(=O)(=O)c1ccc2c(c1)c(=O)n(C)c(=O)n2C (stereo not given),104,101,91,14
CCCC1c2ccc(C)n2CCN1C(=O)Nc1cc(Cl)ccc1C(=O)OC (stereo not given),115,87,70,/
CCC(C)N(C)C(=O)c1cc2ccccc2c(-c2ccccc2Cl)n1 (stereo not given),96,/,/,-12&-37
COC(CNC(=O)c1ccc2c(=O)n(Cc3ccco3)c(=S)[nH]c2c1)OC,107,97,103,-7
CCOc1ccc(S(=O)(=O)N2CCC(C(=O)N(c3ccccc3)c3nc(C)cs3)CC2)cc1,/,85,95,4
O=C(Nc1ccc(Br)cc1)C1CCCN(c2nc3cccnc3s2)C1 (stereo not given),102,/,/,-16
COCCc1ccc(OCC(O)CNC(C)C)cc1 (stereo not given),96&106,92&85,89&90,-33&-18&-13&-7&8
CCOc1ccc2nc(N3CCC(C(=O)NCCOC)CC3)sc2c1,105,100,102,-1
COC(=O)CSc1cc2c3c(c(C(=O)OC)sc3c1)NC(=O)CS2,97,113,86,-13
COc1ccc(CCNc2oc(/C=C/c3cc(OC)c(OC)c(OC)c3)nc2C#N)cc1OC,99,99,84,-31
CC(C)CN(C(=O)COc1ccc(C#N)cc1)c1c(N)n(CC(C)C)c(=O)[nH]c1=O,/,92,99,7
Cc1ccc(Cc2nc3ccccc3nc2SCC(=O)NCCC(C)C)cc1,101,109,103,/
O=C(c1ccc(Cl)cc1)c1cnc2ncccn12,100,83,82,-43
CN(C(=O)Nc1ccc(Cl)cc1)n1cnc2ccccc2c1=O,110,76,77,-31
COc1cccc(CN(C)CC(=O)Nc2c(C#N)c(C)c(C)n2Cc2ccco2)c1OC,/,104,84,-8
COc1ccc(C2c3[nH]c4ccc(OC)cc4c3CCN2C(=O)Nc2ccccc2)cc1 (stereo not given),105,116,90,/
COc1ccc(N(Cc2nc3nc(C)c(Cl)c(C)n3n2)C(=O)CC(C)C)cc1,99,/,/,-34
Clc1ccc(-c2ccc(CNCc3ccccn3)o2)c(Cl)c1,104,/,/,-20
COc1ccc(NC(=O)C(=O)/C=C(\O)c2ccccc2)cc1,110,47,1,-11
CC1(C)C(=O)Nc2ccccc2N1C(=O)COC(=O)CSc1nnc(-c2ccc(Cl)cc2)o1,/,109,92,-13
CCn1cc(C(=O)NC)c(=O)c2ccc(C)nc21,/,88,88,-5
Cc1cccc(C)c1OC(=O)C1=CN2CCS(=O)(=O)N=C2C=C1,/,92,95,-26
COc1ccc(Cl)cc1NC(=O)CSc1nc2ccc(C)cc2[nH]1,104,/,/,0
CC(=O)N1CCc2cc(S(=O)(=O)N3CCN(c4ccc(C)cc4)C(C)C3)ccc21 (stereo not given),105,110,91,-10
Clc1ccc(-c2noc(CSC3=NCCN3)n2)cc1,103,49,24,-6
